Compound activity from PubChem.
Ecoli rRNA inh = inhibitors of bacterial rRNA selective over humanized ribosomes; GFP signal change (wild-type ribosome), % (no concentration beside the values); E. coli WT GFP vs humanized-ribosome RFP mutants, fluorescence, 24 h; active compounds read low; DMSO median 0, no signal -100; 350,000 compounds, 1.6% hits;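 active = significant combined selectivity score with lowered wild-type GFP, culture density cut under 30%, mutant RFP and density less affected; inactive = any of these conditions unmet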; also: one replicate is shown; some compounds called inactive have numbers as strong as hits
FGF22 binding = shifts melting point of recombinant human FGF22; Q9HCT0; calls only at 9.99 µM; recombinant FGF22 thermal shift, SYPRO orange fluorescence; percent of sucrose octasulfate shift, DMSO zero; AID 651658; 340,000 compounds, 1.5% hits;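 active = melting point raised past a set limit in the mean and every replicate; three in four hits are not shown here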
Target sequence (Q9HCT0 whole entry, looked up): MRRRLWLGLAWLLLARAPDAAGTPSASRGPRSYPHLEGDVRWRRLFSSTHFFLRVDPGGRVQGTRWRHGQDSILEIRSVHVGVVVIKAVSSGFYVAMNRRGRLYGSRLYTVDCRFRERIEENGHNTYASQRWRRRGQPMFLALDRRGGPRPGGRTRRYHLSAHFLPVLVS
AF4-AF9 inh = MLL-AF4/AF9 protein interaction inhibition; P42568; AlphaScreen, biotin-AF4 peptide binding to FLAG-AF9; inhibition, % at 10 µM; 350,000 compounds, 0.47% hits;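 active = every replicate reaching a set inhibition limit, whatever the replicate mean, cut at about 25% in these data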;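 also: 0% = plate neutral control median and 100% = total signal loss; the record names both 10 and 1 µM as test concentration; the first replicate is given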
Target sequence (P42568 whole entry, looked up): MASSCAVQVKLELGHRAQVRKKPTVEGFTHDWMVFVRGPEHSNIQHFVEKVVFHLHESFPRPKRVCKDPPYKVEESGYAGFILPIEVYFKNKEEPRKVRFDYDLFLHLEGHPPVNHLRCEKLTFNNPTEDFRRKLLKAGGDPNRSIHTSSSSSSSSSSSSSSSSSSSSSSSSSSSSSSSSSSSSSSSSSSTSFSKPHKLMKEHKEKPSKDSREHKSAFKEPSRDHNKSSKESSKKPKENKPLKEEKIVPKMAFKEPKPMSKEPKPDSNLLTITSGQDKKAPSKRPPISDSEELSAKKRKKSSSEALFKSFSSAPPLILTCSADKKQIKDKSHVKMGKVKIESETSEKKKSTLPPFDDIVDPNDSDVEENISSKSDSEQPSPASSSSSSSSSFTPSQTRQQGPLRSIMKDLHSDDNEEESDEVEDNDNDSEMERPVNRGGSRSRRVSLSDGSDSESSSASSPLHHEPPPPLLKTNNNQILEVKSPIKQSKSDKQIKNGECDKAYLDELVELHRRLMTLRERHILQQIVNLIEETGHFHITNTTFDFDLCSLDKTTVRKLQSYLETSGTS
Ecoli rRNA inh OD600 = second read-out of Ecoli rRNA inh, no call of its own (marks repeat the call); OD600 change, %; measured here: OD600 growth;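 optical density of the mix in the first replicate; 0 = DMSO median and -100 = no signal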
Ecoli rRNA inh RFP = second read-out of Ecoli rRNA inh, no call of its own (marks repeat the call); RFP signal change, %; measured here: RFP humanized mutant strains;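 first replicate; 0 = DMSO median and -100 = no signal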
Starred values were filed as active, the others as inactive; & = joins results of further samples. These rows are one share of the data; count on the stated rates, not on these rows.

What do the screens show for `Cc1ccc(S(=O)(=O)N(C)C[C@H]2Oc3ccc(NC(=O)C4CC4)cc3CC(=O)N([C@H](C)CO)C[C@@H]2C)cc1`?
Ecoli rRNA inh: -3; FGF22 binding: inactive; AF4-AF9 inh: 3.3; Ecoli rRNA inh OD600: -2; Ecoli rRNA inh RFP: 0.8

What do the screens show for `COc1ccc(CN(C)C[C@H]2OCCCC[C@@H](C)Oc3ccc(NS(=O)(=O)c4cccs4)cc3C(=O)N([C@@H](C)CO)C[C@@H]2C)cc1`?
Ecoli rRNA inh: 1; FGF22 binding: inactive; AF4-AF9 inh: 6.0; Ecoli rRNA inh OD600: -12; Ecoli rRNA inh RFP: 4.8

What do the screens show for `Cn1c(=O)c2[nH]c(CSCc3ccccc3)nc2n(C)c1=O`?
Ecoli rRNA inh: 2; FGF22 binding: inactive; AF4-AF9 inh: -0.4; Ecoli rRNA inh OD600: 8; Ecoli rRNA inh RFP: -1.5

Results for C[C@@H]1CN([C@H](C)CO)S(=O)(=O)c2ccc(C3=CCCC3)cc2O[C@@H]1CN(C)C ?
Ecoli rRNA inh: 6; FGF22 binding: inactive; AF4-AF9 inh: -3.6; Ecoli rRNA inh OD600: 5; Ecoli rRNA inh RFP: -4.0

What do the screens show for `CC(C)NC(=O)N(C)C[C@H]1Oc2cc(C#Cc3ccccn3)ccc2S(=O)(=O)N([C@@H](C)CO)C[C@H]1C`?
Ecoli rRNA inh: -3; FGF22 binding: inactive; AF4-AF9 inh: 3.0; Ecoli rRNA inh OD600: -2; Ecoli rRNA inh RFP: -1.1

Results for COCC(=O)N(C)C[C@@H]1Oc2cc(-c3ccc(F)cc3)ccc2S(=O)(=O)N([C@H](C)CO)C[C@H]1C ?
Ecoli rRNA inh: -6&-3; FGF22 binding: inactive; AF4-AF9 inh: -4.6&1.5&2.4; Ecoli rRNA inh OD600: -7&-14; Ecoli rRNA inh RFP: -1.7&1.5

Results for COc1ccccc1CNC(=O)C[C@H]1C[C@H]2c3cc(NC(=O)NC4CCCC4)ccc3O[C@H]2[C@H](CO)O1 ?
Ecoli rRNA inh: 2; FGF22 binding: inactive; AF4-AF9 inh: -2.6; Ecoli rRNA inh OD600: 5; Ecoli rRNA inh RFP: -4.2

How did COc1ccc(NC(=O)Nc2ccc3c(c2)C(=O)N([C@@H](C)CO)C[C@H](C)[C@@H](CN(C)C(=O)Cc2ccccc2)OCCCC[C@@H](C)O3)cc1 do in these assays?
Ecoli rRNA inh: -6; FGF22 binding: inactive; AF4-AF9 inh: 3.5; Ecoli rRNA inh OD600: -11; Ecoli rRNA inh RFP: -1.6

What do the screens show for `CC(=O)N(C)C[C@@H]1Oc2cc(C#CC3CCCC3)ccc2S(=O)(=O)N([C@H](C)CO)C[C@@H]1C`?
Ecoli rRNA inh: 2; FGF22 binding: inactive; AF4-AF9 inh: 2.4; Ecoli rRNA inh OD600: 3; Ecoli rRNA inh RFP: -2.0

What do the screens show for `C[C@@H]1CN([C@H](C)CO)C(=O)c2cccc(N(C)C)c2O[C@H]1CN(C)Cc1ccc(C(=O)Nc2ccccc2N)cc1`?
Ecoli rRNA inh: -1; FGF22 binding: inactive; AF4-AF9 inh: 2.6; Ecoli rRNA inh OD600: 0; Ecoli rRNA inh RFP: -1.0

Results for C[C@@H]1CN([C@H](C)CO)C(=O)c2cc(NC(=O)Nc3ccc4c(c3)OCO4)ccc2O[C@@H](C)CCCCO[C@@H]1CN(C)S(=O)(=O)c1ccc(F)cc1 ?
Ecoli rRNA inh: 1; FGF22 binding: inactive; AF4-AF9 inh: 0.2; Ecoli rRNA inh OD600: 6; Ecoli rRNA inh RFP: -1.6

Results for COc1cc(OC)cc(C2=Cc3ccccc3C(CC(C)=O)N2c2ccc(C#CC3(O)CCCCC3)cc2)c1 (configuration not stated) ?
Ecoli rRNA inh: -24; FGF22 binding: inactive; AF4-AF9 inh: 4.7; Ecoli rRNA inh OD600: -25; Ecoli rRNA inh RFP: -2.5

Results for COc1cccc(C(=O)N2CCC[C@@H]2C(=O)N2CCC[C@@H]2C(=O)NCc2ccccc2)c1 ?
Ecoli rRNA inh: 5; FGF22 binding: inactive; AF4-AF9 inh: -1.5; Ecoli rRNA inh OD600: 5; Ecoli rRNA inh RFP: 1.6

What do the screens show for `O=C(c1ccc(F)cc1)N(CC1CCC1)C[C@H]1N[C@@H](CO)[C@H]1c1ccccc1`?
Ecoli rRNA inh: 0; FGF22 binding: inactive; AF4-AF9 inh: -0.2; Ecoli rRNA inh OD600: -2; Ecoli rRNA inh RFP: -3.5

How did COCC(=O)Nc1ccc2c(c1)C(=O)N(C)C[C@H](OC)[C@H](C)CN(C(=O)c1cnccn1)[C@@H](C)CO2 do in these assays?
Ecoli rRNA inh: 4; FGF22 binding: inactive; AF4-AF9 inh: 3.9; Ecoli rRNA inh OD600: 6; Ecoli rRNA inh RFP: -3.4

How did C[C@H](CO)N1C[C@H](C)[C@@H](CN(C)S(=O)(=O)c2cccc(F)c2)OCc2cn(nn2)CCCC1=O do in these assays?
Ecoli rRNA inh: 2&-1; FGF22 binding: inactive; AF4-AF9 inh: -2.3&0.3; Ecoli rRNA inh OD600: 11&3; Ecoli rRNA inh RFP: -2.4&1.0

Results for CCS(=O)(=O)N1CCCCN2[C@H](C1)[C@H](c1ccc(-c3ccccc3)cc1)[C@@H]2CO ?
Ecoli rRNA inh: 0; FGF22 binding: inactive; AF4-AF9 inh: 10; Ecoli rRNA inh OD600: -8; Ecoli rRNA inh RFP: -2.1

What do the screens show for `C[C@@H]1CCCCO[C@H](CN(C)Cc2ccccc2)[C@@H](C)CN([C@H](C)CO)C(=O)c2cc(NC(=O)CCCCCC(=O)Nc3ccccc3N)ccc2O1`?
Ecoli rRNA inh: 3; FGF22 binding: inactive; AF4-AF9 inh: 1.5; Ecoli rRNA inh OD600: 11; Ecoli rRNA inh RFP: -1.5

How did O=C(C[C@@H]1C=C[C@H](NC(=O)c2ccc3c(c2)OCO3)[C@H](CO)O1)NCc1ccc(Oc2ccccc2)cc1 do in these assays?
Ecoli rRNA inh: -5; FGF22 binding: inactive; AF4-AF9 inh: -0.2; Ecoli rRNA inh OD600: -18; Ecoli rRNA inh RFP: 6.7

What do the screens show for `CSc1ncnc2c1ncn2CCCNCC(C)c1ccccc1` (configuration not stated)?
Ecoli rRNA inh: 9; FGF22 binding: inactive; AF4-AF9 inh: -0.5; Ecoli rRNA inh OD600: 8; Ecoli rRNA inh RFP: -1.7

How did COCC#Cc1ccc2c(c1)O[C@H](CN(C)Cc1ccccc1)[C@@H](C)CN([C@@H](C)CO)S2(=O)=O do in these assays?
Ecoli rRNA inh: -26; FGF22 binding: inactive; AF4-AF9 inh: 3.2; Ecoli rRNA inh OD600: -60; Ecoli rRNA inh RFP: -1.8

How did O=C(NCc1ccncc1)[C@@H]1CCCN1C(=O)[C@@H]1CCCN1C(=O)c1ccccc1Cl do in these assays?
Ecoli rRNA inh: 11; FGF22 binding: inactive; AF4-AF9 inh: 0.2; Ecoli rRNA inh OD600: 9; Ecoli rRNA inh RFP: -2.4

How did COc1ccccc1N1CC(C(=O)OC(C)C(=O)Nc2ccc(F)cc2)CC1=O (configuration not stated) do in these assays?
Ecoli rRNA inh: 4; FGF22 binding: inactive; AF4-AF9 inh: -0.2; Ecoli rRNA inh OD600: 15; Ecoli rRNA inh RFP: -0.2

How did CC(C)CC#Cc1ccc2c(c1)O[C@@H](CN(C)C(=O)C1CCOCC1)[C@@H](C)CN([C@H](C)CO)S2(=O)=O do in these assays?
Ecoli rRNA inh: -1; FGF22 binding: inactive; AF4-AF9 inh: -0.6; Ecoli rRNA inh OD600: 0; Ecoli rRNA inh RFP: -3.5

How did O=C(Nc1ccc(N2CCOCC2)cc1)C1CCN(S(=O)(=O)c2cccc(C(F)(F)F)c2)CC1 do in these assays?
Ecoli rRNA inh: -7; FGF22 binding: inactive; AF4-AF9 inh: -3.0; Ecoli rRNA inh OD600: -16; Ecoli rRNA inh RFP: -4.4

What do the screens show for `Nc1c(-c2ccc(F)c(F)c2)nc2ncccn12`?
Ecoli rRNA inh: 10; FGF22 binding: inactive; AF4-AF9 inh: -0.4; Ecoli rRNA inh OD600: 9; Ecoli rRNA inh RFP: 4.7

Results for COc1ccc(S(=O)(=O)N(C)C[C@@H]2OCCCC[C@H](C)Oc3ccc(NC(=O)c4ccncc4)cc3C(=O)N([C@H](C)CO)C[C@@H]2C)cc1 ?
Ecoli rRNA inh: -7; FGF22 binding: inactive; AF4-AF9 inh: -6.2; Ecoli rRNA inh OD600: -9; Ecoli rRNA inh RFP: 1.5

How did CCNC(=O)C[C@H]1CC[C@H]2[C@@H](COc3ccc(NC(=O)Nc4cccc(F)c4)cc3C(=O)N2C)O1 do in these assays?
Ecoli rRNA inh: 2; FGF22 binding: inactive; AF4-AF9 inh: -2.4; Ecoli rRNA inh OD600: -1; Ecoli rRNA inh RFP: -0.7

How did Cc1ccc(S(=O)(=O)NCC[C@H]2CC[C@H](NC(=O)Nc3ccccc3F)[C@@H](CO)O2)cc1 do in these assays?
Ecoli rRNA inh: -4; FGF22 binding: inactive; AF4-AF9 inh: 0.3; Ecoli rRNA inh OD600: -2; Ecoli rRNA inh RFP: 0.4

How did CN(C)CC(=O)Nc1ccc2c(c1)[C@@H]1C[C@H](CC(=O)NCCN3CCCCC3)O[C@@H](CO)[C@@H]1O2 do in these assays?
Ecoli rRNA inh: 2; FGF22 binding: inactive; AF4-AF9 inh: 2.9; Ecoli rRNA inh OD600: -1; Ecoli rRNA inh RFP: -0.6

How did Cc1ccc(S(=O)(=O)Nc2ccc3c(c2)C(=O)N([C@H](C)CO)C[C@H](C)[C@@H](CN(C)C(=O)Nc2ccc4c(c2)OCO4)OCCCC[C@@H](C)O3)cc1 do in these assays?
Ecoli rRNA inh: 0; FGF22 binding: inactive; AF4-AF9 inh: 2.1; Ecoli rRNA inh OD600: -7; Ecoli rRNA inh RFP: -3.3

How did O=C1c2cccc(-c3ccc(C(F)(F)F)cc3)c2C2CC=CCN12 (configuration not stated) do in these assays?
Ecoli rRNA inh: -10; FGF22 binding: inactive; AF4-AF9 inh: -1.1; Ecoli rRNA inh OD600: -19; Ecoli rRNA inh RFP: -4.3

How did C[C@@H]1CCCCO[C@H](CN(C)Cc2ccncc2)[C@H](C)CN([C@@H](C)CO)C(=O)c2cc(NS(=O)(=O)c3ccc(F)cc3)ccc2O1 do in these assays?
Ecoli rRNA inh: -2; FGF22 binding: inactive; AF4-AF9 inh: 1.2; Ecoli rRNA inh OD600: -13; Ecoli rRNA inh RFP: -0.7

What do the screens show for `C[C@@H]1CN([C@H](C)CO)C(=O)c2cc(-c3ccccc3)cnc2O[C@H]1CN(C)Cc1ccccc1`?
Ecoli rRNA inh: 0; FGF22 binding: inactive; AF4-AF9 inh: 5.9; Ecoli rRNA inh OD600: 6; Ecoli rRNA inh RFP: -1.5

Results for COc1ccc2c3c([nH]c2c1)[C@H](CO)N(CC1CCOCC1)CC31CN(C(=O)c2ccc(F)cc2)C1 ?
Ecoli rRNA inh: -1; FGF22 binding: inactive; AF4-AF9 inh: 0.1; Ecoli rRNA inh OD600: 2; Ecoli rRNA inh RFP: -0.8

How did C/C=C/c1ccc([C@H]2[C@@H](CO)N(C(=O)CC)[C@H]2CNC(=O)CC)cc1 do in these assays?
Ecoli rRNA inh: -1; FGF22 binding: inactive; AF4-AF9 inh: -0.6; Ecoli rRNA inh OD600: 2; Ecoli rRNA inh RFP: -0.2

How did Cn1cnc(S(=O)(=O)N2CCCCN3[C@H](CO)[C@@H](c4ccc(-c5ccccc5F)cc4)[C@H]3C2)c1 do in these assays?
Ecoli rRNA inh: 2; FGF22 binding: inactive; AF4-AF9 inh: -3.0; Ecoli rRNA inh OD600: -5; Ecoli rRNA inh RFP: -4.1

How did Cc1ccc2nc(CN(C)C(=O)[C@H]3O[C@@H](n4ccc(=O)[nH]c4=O)[C@H](O)[C@@H]3O)[nH]c2c1 do in these assays?
Ecoli rRNA inh: -1; FGF22 binding: inactive; AF4-AF9 inh: 0.9; Ecoli rRNA inh OD600: 1; Ecoli rRNA inh RFP: -3.2

Results for C[C@@H]1CN([C@H](C)CO)C(=O)Cc2cc(NC(=O)CCCCCC(=O)Nc3ccccc3N)ccc2O[C@H]1CN(C)Cc1ccc2c(c1)OCO2 ?
Ecoli rRNA inh: -5; FGF22 binding: inactive; AF4-AF9 inh: -2.3; Ecoli rRNA inh OD600: -1; Ecoli rRNA inh RFP: 0.5
